# Mtb H37Rv = Confirmatory growth inhibition assay against Mycobacterium tuberculosis H37Rv, potency (AID 1949). most inactive calls were filed without a number and no value below 0 was filed. inhibition, % at 10 µg/mL, or IC50 in µg/mL where a hit was titrated. 100,000 tested, 1.6% active;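 active = confirmed in a dose series; inconclusive = about 50% or more but not retested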;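 note: bacteria grown 7 days with compound before Alamar blue readout; 0% = untreated bacteria and 100% = reference antibiotic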
# * hit, by the source's call; i = inactive; ? = inconclusive.
SMILES | Mtb H37Rv
COc1cccc(NS(=O)(=O)c2cc(Cl)ccc2Cl)c1 | i
COc1ccc(CNS(=O)(=O)c2ccc(C)c(C(N)=O)c2)cc1 | i
NCc1nnnn1-c1ccccc1 | i
CC(C)(CO)NCc1ccc(Br)cc1 | 1.4%
COc1ccc(NC(=S)Nc2cnn(Cc3ccc(Br)cc3)c2)cc1OC | i
CCCC(=O)NC(=S)Nc1cc(Cl)ccc1C | 0.5%
O=C(O)c1c2c(nc3ccccc13)CCC2 | 2.4%
Cn1c(-c2nonc2NC(=O)c2ccccc2Br)nc2ccccc21 | 1.7%
Cn1c(=O)c2c(nc(Sc3ncnn3CC(=O)NC3CCCCC3)n2C)n(C)c1=O | 0.8%
C=CCc1cccc(CNc2c(C)cc(C)cc2C)c1O | 1.3%
Cc1cc(OCC(=O)N2CCCC2)c(C)cc1Br | 1.3%
CCOC(=O)c1sc2nc3c(cc2c1N)CCCCC3 | i
Cc1ccc(C(=O)O)cc1NC(=S)Nc1ccc(F)cc1F | i
COc1ccc(CCNC(=S)N2CCN(C(=O)C3CCCO3)CC2)cc1OC (stereo not given) | i
COc1c(S(=O)(=O)N2CCCC2)ccc(Cl)c1Cl | i
Nc1nc(SCCc2ccccc2)n[nH]1 | 0.7%
COc1ccc(C(=O)CC2(O)C(=O)Nc3c2ccc(Cl)c3C)cc1 (stereo not given) | i
O=C(Nc1ncc(Cc2ccc(SC(F)F)cc2)s1)c1cccc([N+](=O)[O-])c1 | i
O=C(COc1ccccc1[N+](=O)[O-])Nc1ccc(Br)cc1C(=O)O | i
CCOc1ccc(C(=O)NC(=S)Nc2cc(C(=O)O)ccc2OC)cc1Br | i
COc1ccc(NC(=O)COc2ccc(S(=O)(=O)NC(C)C)cc2)cc1OC | i
O=C1CC(c2ccc(F)cc2)Sc2nc(-c3ccccc3)nn21 (stereo not given) | i
Cc1nn(-c2ccccc2)c2sc(C(=O)Nc3ccccc3C(N)=O)cc12 | 2.9%
COc1ccc2c(c1)c(=O)oc1cc(OCC(=O)OC(C)(C)C)ccc12 | i
CCc1ccc(OCC(=O)NC2CCCCC2)c(Br)c1 | i
COC(=O)COc1ccc(NC(=O)COc2ccc(Br)cc2)cc1 | i
CCCCOc1ccc(S(=O)(=O)N2CCN(c3ccccc3F)CC2)c2ccccc12 | 0.7%
CC(C)N=C(NS(=O)(=O)c1cccs1)c1ccccc1 | 1.8%
O=C(CSc1ncccn1)Nc1nc(=O)c2ccccc2s1 | i
CC1(C)NC(=O)N(CCSc2ccc(Cl)cc2)C1=O | i
COc1ccccc1OCc1ccc(C(=O)NC2CCCCCC2)o1 | 35.0%
Cc1ccc(OCc2n[nH]c(=S)n2-c2ccccc2)cc1C | i
Cc1c(Cl)cccc1NC(=O)c1ccc2c(c1)OCCO2 | 23.0%
Cc1ccc(C)c(Cn2c(C(C)O)nc3ccccc32)c1 (stereo not given) | i
CCCOc1ccc(-c2csc3ncn(Cc4ccc(C(=O)OC)cc4)c(=O)c23)cc1 | 2.2%
CC(NC(=O)c1ccc(Cl)cc1)C1CC2CCC1C2 (stereo not given) | ?
Cc1occc1C(=O)Nc1ccc2c(c1)CCC2 | 2.1%
Clc1ccc(OCCCN2CCCC2)cc1Cl | i
Cc1cc(C)n2nc(Cc3ccccc3)nc2n1 | i
Cc1ccc(SCc2nc(-c3ccncc3)no2)cc1 | i
Cc1ccc(NC(=O)Nc2ccc3c(c2)nnn3C)cc1 | i
O=C(CN(C(=O)c1ccc(Cl)cc1)N1C(=O)CCC1=O)c1cccs1 | 3.3%
COc1cccc(C(=O)N2CCOCC2)c1OC | i
CCN(CC)C(=O)CN(c1ccc(F)cc1)S(C)(=O)=O | i
CCOC(=O)CNC(=O)c1ccc(OC)c(Br)c1 | i
COc1cccc(-c2nc(S(=O)(=O)c3ccccc3)c(NCc3ccccc3)o2)c1 | i
CN(CC(=O)O)S(=O)(=O)c1ccc(Br)cc1 | i
CC(=O)c1ccc(NS(=O)(=O)c2cccc(Cl)c2)cc1 | i
COC(=O)C1=CN(CCc2ccc(F)cc2)C=C(C(=O)OC)C1c1ccc(OC)c(O)c1 | i
Cc1[nH]c(=O)[nH]c(=O)c1N1CCOCC1 | i

# Further entries:
SMILES | Mtb H37Rv
O=C(Nc1ccccc1N1CCN(C(=O)c2ccc(Cl)cc2)CC1)c1cccc(F)c1 | 26.2%
CCOC(=O)c1cc(Cc2ccccc2)sc1NC(=S)Nc1ccc(C(=O)N2CCCCC2)cc1 | i
CC(NS(=O)(=O)c1ccc2c(c1)OCCO2)c1ccccc1 (stereo not given) | 9.8%
CC1CCCN(CCOCCOc2ccccc2)C1 (stereo not given) | i
CCc1ccccc1OCC(=O)NCc1ccccc1 | i
Cc1ccc(C(O)(c2ccc(C)cc2)c2ccccc2N)cc1 | 1.4%
Cc1ccccc1NC(=O)CNS(=O)(=O)c1ccc(Br)cc1 | 1.2%
CCOc1cc(C2Nc3nncn3C(C)=C2C(=O)OC)c(Br)cc1O (stereo not given) | i
CCNC(=S)N(Cc1ccc(Cl)cc1)C1CC(=O)N(c2ccc(OC)cc2)C1=O (stereo not given) | i
COC(=O)C1=C(C)NC(=S)NC1c1cc(C(C)C)c(OC)cc1C (stereo not given) | i
N/C(=N\c1nc(CSc2ccc(Cl)cc2)cc(=O)[nH]1)Nc1ccccc1Sc1ccccc1 | i
COc1cc(NC(=O)COc2ccc(Br)cc2C)c(OC)cc1Cl | i
COC(=O)c1ccc(Cl)c(NC(=O)C(C)NC(=O)C(c2ccccc2)c2ccccc2)c1 (stereo not given) | i
COCCCNc1oc(-c2ccc(OC)cc2)nc1C#N | i
COc1ccccc1NC(=O)C(C(C)C)N1C(=O)c2ccccc2C1=O (stereo not given) | i
O=C(C1CCC1)N1CCN(CCc2ccccc2)CC1 | i
CC(C)NS(=O)(=O)c1ccc(OCC(=O)NCc2ccccn2)cc1 | i
COc1ccc(C(=O)/C=C/Nc2cc(Cl)ccc2O)cc1OC | 4.6µg/mL*
Cc1cccc(NC(=O)c2ccccc2NC(=O)CSc2ccccc2)c1C | 1.2%
CCn1c(CNC(=O)c2cccs2)nnc1SCC(=O)Nc1ccc(Br)cc1F | i
OCc1nc2ccccc2n1Cc1ccc(Cl)cc1Cl | i
CCOC(=O)Cc1csc(NC(=O)CCCOc2ccc(C)cc2C)n1 | i
N#Cc1c(SCC(=O)Nc2ccccc2F)nsc1SCC(=O)Nc1ccccc1F | i
CCOc1ccccc1NS(=O)(=O)c1ccc(OCC(=O)OC)cc1 | 22.9%
Cc1cc(S(=O)(=O)NCc2cccnc2)c(C)cc1Br | i
O=C(CSc1nnc(SCc2ccc(Cl)cc2)s1)c1ccc2c(c1)OCO2 | i
CCCN(CCC)C(=O)CN1C(=O)c2ccccc2C1=O | i
COc1ccc(CCNC(=O)C2CCN(C(=O)c3ccccc3C)CC2)cc1OC | i
O=C(CCCc1ccccc1)Nc1nnc(Cc2ccc(Cl)cc2)s1 | i
Cc1cc(O)ccc1Nc1nc(-c2sc(N)nc2C)cs1 | i
COC(=O)c1ccc(NC(=S)N(Cc2ccccc2)Cc2ccccc2)cc1 | i
COc1ccc(Cl)cc1NC(=O)C1=C(C)NC(=O)NC1c1ccccc1C (stereo not given) | i
CCOC(=O)c1c(-c2ccc(OC)c(OC)c2)csc1NC(=O)c1ccccc1OC | i
Cc1ccc(Nc2nc(C3(C)CC(C(C)C)C(=O)O3)cs2)cc1 (stereo not given) | 0.7%
COc1ccc(S(=O)(=O)NCc2ccc3c(c2)OCO3)c(C)c1C | i
Cc1nn(-c2ccccc2)c2sc(C(=O)n3cccn3)cc12 | i
S=C(NCC1CCCO1)N1CCN(c2ncccn2)CC1 (stereo not given) | i
c1ccc(CNc2nc(NCc3ccco3)nc(N3CCOCC3)n2)cc1 | i
C=CCn1c(-c2ccccc2Cl)nc2ccccc21 | i
CCOC(=O)c1ccc(NC(=O)c2c3c(nc4ccccc24)CCCC3)cc1 | 2.4%
Cc1ccc(CN2C(=O)c3oc4ccc(C)cc4c(=O)c3C2c2cccc(O)c2)cc1 (stereo not given) | 0.1%
O=C(Nc1cc(Cl)c(Cl)cc1Cl)C(F)(F)F | i
Cc1ccc(NC(=S)Nc2c(C)n(C)n(-c3ccccc3)c2=O)c(Cl)c1 | i
CC(Oc1ccc(Br)cc1)C(=O)Nc1ccccc1[N+](=O)[O-] (stereo not given) | i
CCCOc1ccc(CSc2nc3ccccc3[nH]2)cc1 | i
O=C(CC12CC3CC(CC(C3)C1)C2)NC(=S)NC1C2CC3CC(C2)CC1C3 (stereo not given) | i
CC(=O)Nc1ccc(C(=O)NCCc2ccccc2)cc1 | i
CCCCC(=O)N(c1nc(-c2ccc(Cl)cc2)c(C)s1)c1ccccc1Br | 19.4%
CCc1cc(C(=O)OC)c(NC(=S)N2CCN(c3ccccn3)CC2)s1 | i
O=C(COc1ccccc1)NCCC12CC3CC(CC(C3)C1)C2 | 21.9%

# Next structures follow:
SMILES | Mtb H37Rv
COC(C(=O)Nc1ccccc1F)c1ccccc1 (stereo not given) | i
N/C(=N\O)c1ccc(NC(=O)c2cccs2)cc1 | i
COc1ccc(S(=O)(=O)N2CCC(C(=O)O)CC2)cc1C | i
C=CCn1c(COc2ccccc2)nnc1SCC(=O)Nc1cccc(Cl)c1Cl | 0.2%
CCNC(=S)N1CCN(c2cc(Cl)ccc2C)CC1 | i
CCOc1ccc(NC(=O)C2C3C=CC(O3)C2C(=O)O)cc1 (stereo not given) | i
COc1ccc(OC)c(NC(=O)NNC(=O)c2ccn(C)n2)c1 | i
COc1cccc(C(=O)CC2(O)C(=O)N(Cc3ccc(Cl)cc3)c3ccccc32)c1 (stereo not given) | i
COC(=O)COc1ccc(S(=O)(=O)NCc2ccco2)cc1 | i
COc1cccc(C(=O)NCCSCc2ccccc2Cl)c1 | i
N#Cc1c(NC(=O)CN2C(=O)c3ccccc3C2=O)sc2c1CCCCC2 | i
COc1cc2c(cc1OC)C(c1ccccc1)N(S(C)(=O)=O)CC2 (stereo not given) | i
O=S(=O)(c1ccc(Oc2ccccc2Cl)cc1)N1CCCC1 | i
COc1cccc(NC(=O)NNC(=O)CSCc2c(F)cccc2Cl)c1 | i
COc1cc(C2C3=C(CCCC3=O)N(C)C3=C2C(=O)CCC3)cc(Cl)c1OCc1ccc(F)cc1 | i
N/C(Cc1ccc(Cl)cc1)=N\OC(=O)C1CCCCC1 | i
O=C(c1ccc(Br)cc1)n1c(Cc2ccccc2)nc2ccccc21 | i
CCCc1nc2c(sc3nc4c(cc32)COC(C)(C)C4)c(=O)n1N | i
COC(=O)c1ccccc1NC(=O)CN(C)S(=O)(=O)c1ccc(OC)c(C)c1 | i
CC(C)(C)c1ccc(OC(=O)c2cccc([N+](=O)[O-])c2)c(Br)c1 | 23.9%
N#C/C(=C/c1ccc(OCC(=O)O)c(Br)c1)c1ccc(Cl)cc1 | 0.2%
C=CCn1c(SCC(=O)NC2CCCC2)nnc1-c1ccc(OC)cc1 | i
Cc1cc2c(N3CCN(Cc4nc5ccccc5[nH]4)CC3)ncnc2s1 | 3.5%
CCCCNCCCOc1ccc(Cl)c(Cl)c1 | i
COc1cccc(COc2ccc3c(C)c(CCC(=O)O)c(=O)oc3c2C)c1 | i
COc1ccccc1-c1nc(-c2cccc(Br)c2)no1 | 1.9%
COc1ccc(CSc2nnc3n(-c4ccccc4)c(=O)c4c5c(sc4n23)CCC5)cc1 | i
CCOC(=O)c1c(NC(=O)COc2ccc(F)cc2)sc2c1CCC2 | i
COc1cc(NC(=O)c2ccc(C)c([N+](=O)[O-])c2)ccc1NC(=O)C(C)C | i
CC1=C(C(=O)OC(C)C)C(c2ccc3ccccc3c2)C2=C(CC(c3cccs3)CC2=O)N1 (stereo not given) | 6.1%
O=C(NC(=S)Nc1ccccc1OC(F)F)c1cccs1 | 1.9%
O=C(C1CCCCC1)N1CCN(c2nnc(-c3ccccc3)c3ccccc23)CC1 | 0.7%
O=C(NC(=S)Nc1cccc2ncccc12)c1ccco1 | i
CCOc1cccc(-c2cc(C(=O)N3CCN(C)CC3)c3ccccc3n2)c1 | 5.7%
Clc1ccc(SCCCCN2CCOCC2)cc1 | i
CCN(CC)C(=O)C(C)(c1ccccc1)c1ccccc1 | i
CCNC(=S)NCc1ccc(OC)c(OC)c1 | i
COc1ccccc1CNC(=O)CSCc1c(Cl)cccc1Cl | i
CC(=O)Nc1ccc(NC(=O)CN(c2cc(C(F)(F)F)ccc2Cl)S(=O)(=O)c2ccccc2)cc1 | i
CC(=O)N1CCN(c2ccc(NC(=O)c3cc(C)cc(C)c3)cc2)CC1 | 21.9%
CCN(CC)c1ccc(NC(=O)c2cccc(-c3cc4ccccc4oc3=O)c2)c(C)c1 | 5.4%
CSc1nc2ccccc2c(=O)n1N | i
Cc1ccnc(NS(=O)(=O)c2ccc(NC(=O)C3C4C=CC(C4)C3C(=O)O)cc2)n1 (stereo not given) | i
c1ccc(-c2csc3ncnc(NCCCN4CCOCC4)c23)cc1 | i
COc1ccc(Cl)cc1NC(=O)c1ccccc1I | i

# Filtered by structure, those above with a cyano group (four)
SMILES | Mtb H37Rv
COCCCNc1oc(-c2ccc(OC)cc2)nc1C#N | i
N#Cc1c(SCC(=O)Nc2ccccc2F)nsc1SCC(=O)Nc1ccccc1F | i
N#Cc1c(NC(=O)CN2C(=O)c3ccccc3C2=O)sc2c1CCCCC2 | i
N#C/C(=C/c1ccc(OCC(=O)O)c(Br)c1)c1ccc(Cl)cc1 | 0.2%

# As a working copy, part of the list above:
SMILES | Mtb H37Rv
COc1ccccc1-c1nc(-c2cccc(Br)c2)no1 | 1.9%
COc1ccc(CSc2nnc3n(-c4ccccc4)c(=O)c4c5c(sc4n23)CCC5)cc1 | i
CCOC(=O)c1c(NC(=O)COc2ccc(F)cc2)sc2c1CCC2 | i
COc1cc(NC(=O)c2ccc(C)c([N+](=O)[O-])c2)ccc1NC(=O)C(C)C | i

# Bioassay records (PubChem BioAssay)

# The list is partial. The share of hits here may be higher or lower than overall.
